Screening results as filed in PubChem BioAssay.
FGF22 binding = binders of recombinant human FGF22 by thermal shift | Q9HCT0 | SYPRO orange fluorescence; percent of sucrose octasulfate shift, DMSO zero | calls only at 9.99 µM | hit rate 1.5% among 340,000 | AID 651658;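 active = melting point raised past a set limit in the mean and every replicate; inconclusive = no clear call; three in four hits are not shown here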
Target sequence (Q9HCT0 whole entry, looked up): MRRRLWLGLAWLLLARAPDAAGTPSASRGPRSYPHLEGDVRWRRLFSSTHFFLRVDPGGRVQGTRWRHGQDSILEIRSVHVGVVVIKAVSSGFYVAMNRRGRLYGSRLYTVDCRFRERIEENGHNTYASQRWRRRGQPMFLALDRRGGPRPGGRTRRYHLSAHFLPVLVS
MLL AF4-AF9 inh = MLL-AF4/AF9 protein interaction inhibition | AlphaScreen, biotin-AF4 peptide binding to FLAG-AF9 | inhibition, % at 10 µM | hit rate 0.47% among 350,000;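 active = every replicate reaching a set inhibition limit, whatever the replicate mean, cut at about 25% in these data; inconclusive = mean inhibition reaches that limit but some replicates miss it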;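 also: 0% = plate neutral control median and 100% = total signal loss; the record names both 10 and 1 µM as test concentration; the first replicate is given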
ALR inh = blocks human ALR sulfhydryl oxidase activity; inhibition, % (test concentration not listed); AID 485317; P55789; purified ALR, DTT oxidation, H2O2 HRP-luminol luminescence; hit rate 3.8% among 290,000;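 active = mean and each replicate at 75% or more; inconclusive = only one of the two met; inactive = neither met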;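 also: stock transfer was 7.5 nL into about 7.5 µL; 0% = neutral wells and 100% = wells with inactivated enzyme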
Target sequence (P55789 whole entry, looked up): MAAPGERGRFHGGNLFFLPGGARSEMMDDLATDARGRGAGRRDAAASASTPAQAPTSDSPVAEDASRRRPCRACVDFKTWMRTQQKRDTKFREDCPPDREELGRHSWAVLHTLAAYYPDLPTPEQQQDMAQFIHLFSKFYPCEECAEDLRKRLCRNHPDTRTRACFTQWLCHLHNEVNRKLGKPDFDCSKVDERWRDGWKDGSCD
HNF4A DNA FP = change in binding of human HNF4 alpha to DNA; P41235; HNF4a-FITC DNA binding, fluorescence polarization, 1 h; activity change, % at 10 µM; hit rate 0.3% among 360,000; in the data active = activity change above about 30%, passing the limit was not always enough;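 also: controls were the assay level and a saturating level of protein; the project sought stronger binding though the title names inhibitors; some compounds called inactive have numbers as strong as hits; positive values seem to mean higher polarization but the record does not say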
Target sequence (P41235 whole entry, looked up): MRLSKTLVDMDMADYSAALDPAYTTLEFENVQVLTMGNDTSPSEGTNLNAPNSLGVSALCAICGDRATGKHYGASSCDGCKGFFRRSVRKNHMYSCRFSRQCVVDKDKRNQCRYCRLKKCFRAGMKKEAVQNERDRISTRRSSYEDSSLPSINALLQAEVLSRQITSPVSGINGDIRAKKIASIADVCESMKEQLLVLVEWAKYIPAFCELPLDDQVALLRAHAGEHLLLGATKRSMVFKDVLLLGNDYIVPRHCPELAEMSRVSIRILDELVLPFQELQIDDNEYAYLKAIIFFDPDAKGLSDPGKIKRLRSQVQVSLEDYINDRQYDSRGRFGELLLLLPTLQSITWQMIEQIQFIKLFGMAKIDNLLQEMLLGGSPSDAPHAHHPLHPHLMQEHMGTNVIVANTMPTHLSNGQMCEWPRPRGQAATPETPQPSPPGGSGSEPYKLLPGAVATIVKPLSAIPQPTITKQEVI
E coli growth = blocks Escherichia coli growth. OD600, 23 h; hits give low values. OD600 absorbance (test concentration not listed). hit rate 0.21% among 330,000. AID 1053175;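 active = OD600 absorbance below the run mean of sample wells minus 3.6 SD, in any replicate, cut at about 0.56 in these data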;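 also: stock transfer was 300 nL into about 60 µL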
Vif TR-FRET = inhibitors of Vif binding to APOBEC3G peptide, primary screen, biochemical, TR-FRET, GST-Vif 1-94, biotin-A3G peptide, dose response retest (AID 1117319); TR-FRET GST-Vif / biotin-A3G peptide binding; higher % means a stronger effect; test concentration not given here; strong numbers were not always called active; inhibition, %; hits with a dose series show IC50 in µM; hit rate 0.57% among 260,000;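 active = above the screen mean plus three standard deviations and confirmed in dose response; inconclusive = results disagree or hit not tested in dose response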;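 also: Vif residues 1-94 fused to GST binding biotinylated APOBEC3G peptide 110-148; 0% = full assay without inhibitor and 100% = GST in place of GST-Vif; retest series ran down from 100 µM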
Ecoli rRNA inh = selective bacterial rRNA inhibition in E. coli; E. coli WT GFP vs humanized-ribosome RFP mutants, fluorescence, 24 h; hits give low values; DMSO median 0, no signal -100; GFP signal change (wild-type ribosome), % (concentration not given with the values); AID 720706; hit rate 1.6% among 350,000;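 active = significant combined selectivity score with lowered wild-type GFP, culture density cut under 30%, mutant RFP and density less affected; inactive = any of these conditions unmet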; also: one replicate is shown; some compounds called inactive have numbers as strong as hits
Ecoli rRNA inh OD600 = second read-out of Ecoli rRNA inh, no call of its own (marks repeat the call); OD600 change, %; measured here: OD600 growth;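 optical density of the mix in the first replicate; 0 = DMSO median and -100 = no signal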
Ecoli rRNA inh RFP = also measured in Ecoli rRNA inh; calls as there; RFP signal change, %; measured here: RFP humanized mutant strains;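 first replicate; 0 = DMSO median and -100 = no signal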
The depositor's hits bear a star; i = inactive; ? = inconclusive; nt = not tested or not shown.

SMILES | FGF22 binding | MLL AF4-AF9 inh | ALR inh | HNF4A DNA FP | E coli growth | Vif TR-FRET | Ecoli rRNA inh | Ecoli rRNA inh OD600 | Ecoli rRNA inh RFP
Cc1cc(C)c(NC(=O)CS(=O)CC(=O)Nc2ccc(-n3cnnn3)c(C)c2)c(C)c1 (stereo not drawn) | i | -2.3 | nt | 2.4 | 0.698 | nt | 4.8 | 3.0 | -1.2
C=CCn1cc(-c2cccc(Cl)c2)cc(C#N)c1=O | nt | nt | -5.9 | 1.3 | 0.711 | 0.6% | nt | nt | nt
COc1ccc(Cn2c(=O)sc3ccccc3c2=O)cc1 | i | -1.4 | nt | -2.8 | 0.655 | 1.3% | 14.3 | 5.4 | 0.4
CSc1ccccc1C(=O)Nc1cc([N+](=O)[O-])ccc1C | i | -4.4 | -0.1 | -1.5 | 0.715 | 0.0% | 10.6 | 4.5 | 1.5
CCCN(Cc1nnc(-c2cccs2)o1)C(=O)CN1C(=O)NC2(CCCCC2C)C1=O (stereo not drawn) | i | -1.4 | -0.7 | 0.6 | nt | -8.2% | -2.7 | 2.3 | -0.4
O=C(N/N=C/c1ccoc1)c1cccc([N+](=O)[O-])c1 | i | -2.7 | -2.7 | -1.3 | nt | nt | 6.2 | 16.6 | -2.3
CC1CCC(NS(=O)(=O)c2ccc3c(c2)CC(=O)N3)CC1 (stereo not drawn) | i | -3.8 | 5.1 | -3.5 | 0.689 | -3.3% | 0.6 | 11.1 | -1.7
COc1ccc(Cl)cc1-c1cc(C(=O)Nc2ccccc2)[nH]n1 | i | -1.7 | nt | -1.9 | nt | nt | -43.2 | -71.0 | -2.7
Cc1ccc2nc(SCc3nnc(-c4ccccc4Br)o3)[nH]c2c1 | nt | nt | 67.1 | 0.4 | 0.607 | 11.3% | nt | nt | nt
CCOc1cc(/C=C2\CN(CC)C/C(=C\c3ccc(O)c(OCC)c3)C2=O)ccc1O | i | 5.8 | nt | 2.1 | 0.613 | 21.6% | -10.1 | -20.9 | 4.8
Cc1nnc(SCc2cccc(Cl)c2)n(N)c1=O | i | 0.3 | -0.3 | 0.1 | 0.716 | nt | 4.0 | 0.9 | -1.2
CCOc1ccc(CNC(=O)CS(=O)(=O)Cc2nc(-c3ccc(OC)cc3)oc2C)cc1 | i | 48.1* | 42.4 | -0.9 | 0.732 | nt | -1.3 | 9.7 | -1.3
Cc1ccc(Cn2nnc3c(=O)[nH]c(C4CCN(C(=O)c5cccs5)CC4)nc32)cc1 | nt | nt | 1.9 | 1.1 | 0.635 | -1.0% | nt | nt | nt
Cc1ccc2c(c1)c1c(n2CC(O)CNC2CCCC2)CCCC1 (stereo not drawn) | i | nt | 89.2* | -0.4 | 0.648 | -5.3% | -35.5 | -74.8 | -1.6
COc1ccc(-c2ccccc2[C@@H]2[C@@H](CO)N(C(=O)NC(C)C)[C@H]2C#N)cc1 | i | -2.1 | nt | nt | nt | nt | 5.8 | 5.6 | 1.2
CCOC(=O)c1nc(NNC(=O)c2ccc([N+](=O)[O-])cc2)sc1C | i | 21.6 | 99.2* | 2.5 | 0.683 | 8.3% | -14.6 | 1.1 | -4.6
COc1ccccc1N1CCN(C(=O)CSc2nc3ccccc3o2)CC1 | nt | nt | -4.0 | 2.8 | 0.672 | 27.2% | nt | nt | nt
COc1cc(/C=N/NC(=O)Cn2nnc3ccccc32)ccc1O | nt | 2.1 | 92.2* | -0.1 | nt | -1.3% | 15.3 | 17.9 | 1.6
C[C@@H]1O[C@@H](O[C@H]2[C@H](O[C@H]3C[C@]4(C)C(C[C@@H](O)C5C([C@]6(C)CC[C@@H](C(C)(C)O)O6)CC[C@]54C)[C@@]4(C)CC[C@H](O)C(C)(C)C34)O[C@H](CO)[C@@H](O)[C@@H]2O)[C@H](O)[C@H](O)[C@H]1O (stereo partly drawn) | i | -3.0 | -6.5 | 3.8 | nt | nt | 7.7 | 2.1 | -1.2
CCCS(=O)(=O)N1CCN(Cc2ccccc2C(F)(F)F)CC1 | nt | nt | 2.4 | -3.5 | 0.656 | 8.2% | nt | nt | nt
O=C(CCCN1CCC(c2ccccc2)C1)c1ccc2c(c1)OCCO2 (stereo not drawn) | nt | nt | 0.5 | 4.9 | 0.629 | -0.7% | nt | nt | nt
CNC(=O)C[C@@H]1CC[C@H]2[C@@H](COC[C@H](O)CN2C(=O)Nc2cccc(OC)c2)O1 | i | -3.6 | nt | nt | nt | nt | 7.8 | 6.4 | -3.0
CCN(CC)c1ccc(C(=S)N2CCN(c3ccccc3)CC2)cc1 | nt | nt | 8.0 | -1.3 | 0.714 | -4.6% | nt | nt | nt
C[C@@H]1CN([C@H](C)CO)C(=O)c2cc(NC(=O)CCCN(C)C)ccc2O[C@@H](C)CCCCO[C@H]1CN(C)Cc1ccccc1 | i | -4.0 | nt | nt | nt | nt | 1.7 | 5.2 | -0.4
COCC(=O)N(C)C[C@@H]1Oc2ncc(C#Cc3ccncc3)cc2C(=O)N([C@H](C)CO)C[C@H]1C | i | -7.8 | nt | nt | nt | nt | 1.5 | 2.1 | -1.4
Cc1ccc(C)c(S(=O)(=O)N2CCN(C(=O)c3cccn3C)CC2)c1 | i | 9.5 | nt | 2.2 | 0.603 | -1.6% | -3.3 | -1.2 | -0.6
O=S(=O)(NCCc1ccccc1)c1cccc(S(=O)(=O)N2CCOCC2)c1 | nt | nt | -1.9 | 2.9 | 0.673 | ? | nt | nt | nt
CN1/C(=C\C(=O)COC(=O)Cn2nnc(-c3ccccc3)n2)C(C)(C)c2ccccc21 | nt | nt | -7.1 | 20.1 | 0.684 | -5.9% | nt | nt | nt
O=C(NCc1ccccn1)C(=O)NCC1OCCCN1S(=O)(=O)c1ccc(F)cc1 (stereo not drawn) | i | -1.8 | -2.1 | -0.1 | 0.676 | nt | 3.6 | 4.6 | -1.2
CCCCc1ccc(S(=O)(=O)NC(=O)C2(C)CCN2C(=O)CCc2cccs2)cc1 (stereo not drawn) | i | -4.0 | nt | -0.8 | nt | nt | -13.6 | -30.4 | -5.8
C[C@@H]1CN([C@H](C)CO)C(=O)c2cc(NC(=O)Nc3ccc(C(F)(F)F)cc3)ccc2O[C@@H](C)CCCCO[C@H]1CN(C)S(=O)(=O)c1cccs1 | i | -1.9 | nt | nt | nt | nt | 0.0 | 7.9 | -3.0
COc1cc(C(=O)NC(=S)Nc2ccc3c(c2)OCO3)cc(OC)c1OC | i | -1.8 | 0.2 | 18.6 | 0.729 | -3.7% | 13.1 | 12.8 | 0.9
COc1cc(/C=C/CN2CCC(C(=O)NC(c3ccc(F)cc3)c3ccc4ccccc4n3)CC2)ccc1OC(C)=O (stereo not drawn) | i | 5.6 | nt | -2.7 | nt | nt | -54.2 | -71.8 | -7.4
CC1=CN2C(c3cccc([N+](=O)[O-])c3)=NON(c3ccc(C)cn3)C2C=C1 (stereo not drawn) | i | 12.0 | nt | 2.0 | nt | nt | 1.5 | 8.6 | -2.3
O=C(OCCCOC(=O)c1ccc([N+](=O)[O-])o1)c1ccc([N+](=O)[O-])o1 | i | 0.1 | -39.5 | 1.3 | 0.641 | 4.9% | 4.6 | 7.0 | 1.3
Cc1ccc(/C=N/NC(=O)Cn2nc(C)c([N+](=O)[O-])c2C)o1 | i | nt | -3.5 | -3.9 | nt | 3.0% | 7.7 | 18.7 | -0.4
O=C(N/N=C/c1cccc(OC2CSC2)c1)c1ccccc1O | nt | nt | -6.5 | -5.5 | nt | -0.9% | nt | nt | nt
Cc1ccc(OCCN2CCCC2)cc1 | i | -11.8 | -1.3 | -3.8 | 0.658 | nt | 6.4 | 0.0 | -1.1
O=C(c1ccccc1)N1CCN(C(=O)c2ccccc2)C1c1ccccc1 | nt | nt | -1.6 | -1.6 | 0.653 | 28.1% | nt | nt | nt
Nc1cnc(-c2ccccc2)nc1Cl | i | 0.9 | 3.1 | 6.7 | 0.69 | -4.0% | 7.1 | 1.5 | 0.0
Cc1cc2cc(C(c3nnnn3Cc3ccco3)N3CCc4ccccc43)c(=O)[nH]c2cc1C (stereo not drawn) | nt | nt | 33.5 | 6.1 | 0.731 | ? | nt | nt | nt
Nc1ncnc2c1ncn2CCc1ccccc1 | i | 0.6 | -2.7 | 1.9 | 0.662 | 1.1% | 11.8 | 5.3 | 4.6
O=C(Nc1ccccc1Cl)c1ccccc1Oc1ccc(C(F)(F)F)cc1[N+](=O)[O-] | nt | nt | -14.8 | -2.9 | 0.79 | 2.1% | nt | nt | nt
CN1CCN(C2CN(C3CCCCC3)S(=O)(=O)C2)CC1 (stereo not drawn) | i | -0.4 | nt | 0.1 | nt | nt | 17.1 | 13.2 | -0.7
CCCCN(CC)S(=O)(=O)N1CCC(C(=O)NCc2ccc(F)cc2)CC1 | i | 1.7 | 0.9 | -1.1 | 0.671 | -7.3% | -2.3 | 0.0 | -0.4
Cc1cc(C)c(C2=NOC3c4ccccc4OCC23)c(C)c1 (stereo not drawn) | i | -2.3 | nt | nt | nt | nt | -23.0 | -63.6 | -6.8
OC[C@H]1O[C@@H](c2nc(-c3cccc4ccccc34)no2)[C@H](O)[C@@H]1O | i | -1.1 | nt | 0.5 | nt | nt | 2.8 | 1.9 | 8.4
Cc1ccc(C)c(N(CC(=O)NC(C)C)C(=O)CCC(=O)Nc2ccccn2)c1 | i | 1.4 | -0.7 | 1.3 | 0.657 | nt | 10.1 | 7.3 | 0.4
C[C@H](CO)N1C[C@H](C)[C@H](CN(C)Cc2ccc(O)cc2)OCc2ccccc2-c2c(n(C)c3ccccc23)C1=O | i | 2.0 | nt | nt | nt | nt | -4.3 | -13.0 | 13.6
COc1ccc(C(Nc2cccc([N+](=O)[O-])c2)P(=O)(OC(C)C)OC(C)C)cc1 (stereo not drawn) | i | -4.9 | 3.0 | -2.0 | 0.655 | -4.7% | -1.9 | 6.6 | 0.2
Cc1ccccc1N(C(=O)CNC(=O)c1ccco1)C(C(=O)NC1CCCCC1)c1ccncc1 (stereo not drawn) | i | -0.7 | 4.9 | 0.3 | 0.676 | nt | 3.8 | 3.1 | 0.4
Cc1ccc(S(=O)(=O)N(C)C[C@H]2Oc3ccc(NS(=O)(=O)c4cccs4)cc3CC(=O)N([C@H](C)CO)C[C@@H]2C)cc1 | i | 1.7 | nt | nt | nt | nt | -2.9 | -11.2 | 3.5
O=C(Nc1ccn(Cc2ccccc2)n1)c1ccc(F)cc1 | i | 0.2 | -1.1 | -1.0 | 0.681 | 13.9% | 8.8 | -2.9 | 0.3
COC(=O)c1sc(S(=O)(=O)Nc2ccc3cn[nH]c3c2)c(C(=O)OC)c1C | nt | nt | -7.0 | -4.6 | 0.712 | 7.7% | nt | nt | nt
CCCNC(=O)N1C[C@@H](O)COC[C@@H]2O[C@H](CC(=O)OC)CC[C@H]21 | i | -2.3 | nt | nt | nt | nt | 2.2 | -9.0 | 1.6
O=C(Nc1cc(Cl)ccc1Cl)N1CCN(C(=O)Nc2cc(Cl)ccc2Cl)CC1 | i | -2.9 | nt | 4.4 | 0.715 | 1.5% | 7.3 | 11.3 | -0.9
CCCC(=O)Nc1nnc(S(=O)(=O)N(C)Cc2ccco2)s1 | nt | nt | 6.1 | -0.2 | nt | 9.9% | nt | nt | nt

These rows are one share of the data; the hit share may differ from the screen's.
